NPYLR7 ag = mosquito NPYLR7 agonism; HEK293T NPYLR7/Galpha15, GCaMP6s calcium fluorescence; actives 0.15% (n = 270,000); activation, % at 10 µM; in the data active = activation above about 40%;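 also: 0% = vehicle and 100% = reference agonist at the receptor; some compounds past the cut are filed as inactive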
NPYLR7 ag max-min = further read-out of NPYLR7 ag, marked with its call; activation, %; measured here: Max-Min RFU normalised activation; some inactives read as strong as hits;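 span of the calcium signal over five minutes; 0% = vehicle and 100% = native peptide agonist; compound fluorescence can raise it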
The depositor's hits bear a star; & = joins results of further samples.

SMILES | NPYLR7 ag | NPYLR7 ag max-min
CCC1CN(C(=O)c2ccc(C#CC(C)(C)O)cc2)CCN1 (centres undefined) | 0.6 | -2.7
Cc1ccsc1CNn1cn[nH]c1=S | 2.3 | -0.3
Cc1cc(OC(=O)c2ccc(OC(C)C)cc2)c([N+](=O)[O-])c(=O)[nH]1 | 0.2 | 1.6
CNC(=O)[C@@H](Cc1ccccc1)N(C)C(=O)[C@@H](Cc1ccc2ccccc2c1)N(C)C(=O)/C=C/CC(C)(C)N | -16.0 | -22.5
Cc1cc(-c2ccccc2)c2c3c(cn2n1)c(=O)n(C)c(=O)n3C | -9.7 | -15.6
O=C(NCC(=O)N1CCCC1)c1cc(S(=O)(=O)N2CCN(c3ccccc3)CC2)ccc1Cl | -7.6 | -10.0
COC(=O)C1CCN(C(c2ccccc2)C2Sc3ncnn3C2=O)CC1 (centres undefined) | -1.9 | 0.5
N#CC(c1ccccc1)c1cnn(-c2ccccc2)c(=O)c1Cl (centres undefined) | 9.4 | 3.7
Cc1ccc2nc(CSCC(=O)Nc3ccc4ccccc4c3)cc(=O)n2c1 | -5.6 | 0.8
Cc1nc(SCC(=O)NCc2ccc3c(c2)OCCCO3)n[nH]1 | 11.6 | -4.4
NC(=O)c1cncc(N2CCCC(CO)(Cc3ccc(F)cc3)C2)n1 (centres undefined) | 7.9 | 4.5
CCOC(=O)Cc1c(C)nc2ncnn2c1N1CCN(C(=O)NCc2ccccc2Cl)CC1 | 20.0 | 7.2
O=C(CCl)Nc1ccc(OC(F)F)cc1 | -6.8 | -9.4
C=CCN1C[C@@H]2C[C@@H](C(N)=O)Nc3cccc(c32)S1(=O)=O | 5.6 | 16.6
Cc1nc(-c2ccccc2)ccc1C(=O)N1CCCC(C(=O)Nc2ccccn2)C1 (centres undefined) | 5.4 | 1.3
COc1ccc(-c2cc3c(=O)n(CC(=O)NCCc4ccc(Cl)cc4)ccn3n2)cc1 | 1.9 | 0.2
O=C(c1cc2ccccc2o1)N(CCN1CCCCC1)CC1CCCN(C2CCCC2)C1 (centres undefined) | 4.9&-4.0 | 4.7&-7.7
O=C(CC1C=CCC1)NCC1(CO)CCCC1 (centres undefined) | -5.3 | -6.4
C=CCn1c(SCC(=O)N(Cc2ccccc2F)C2CC2)nnc1C1COc2ccccc2O1 (centres undefined) | -5.9 | -7.7
Cc1ccc(-n2c(C)nnc2SC(C)C(=O)NC2CCCC2)cc1 (centres undefined) | 8.2 | 6.2
COc1ccc2c(c1)CCc1c-2noc1-c1ccc(C)c(NC(=O)C2(c3ccc(Cl)cc3)CCCC2)c1 | 3.4 | 3.1
COc1ccc(Cn2ccnc2CN(CCN2CCOCC2)C(=O)c2cccc(OC)c2)cc1 | 5.7 | 7.2
Cc1ccsc1/C=C/C(=O)N1CCN(c2nccs2)CC1 | -0.6 | -3.8
Cc1ccc(-c2ccnc(NCc3cc(=O)[nH]cn3)n2)c(C)n1 | 0.6 | -1.4
O=C(Nc1ccccn1)c1cccc(S(=O)(=O)CC(F)(F)F)c1 | 11.8 | 9.6
COc1ccc(OC)c(C2C(C#N)=C(C)NC3=C2C(=O)CC(C)(C)C3)c1 (centres undefined) | 7.1 | 7.2
COC(=O)CC1(C)NCCNC1=O (centres undefined) | -1.4 | -2.0
O=C(O)C1CN(S(=O)(=O)c2cccc(Oc3ccccc3)c2)CCN1 (centres undefined) | -1.1 | -4.1
Cc1nc(-c2ccc(CNC(=O)COc3ccc(C#N)cc3)s2)cs1 | -0.8 | 8.5
CCOc1ccccc1NC(=O)c1cc(=O)c(OCC)cn1C | 3.0 | 1.5

Compound profiles (already shown). Order of values: NPYLR7 ag | NPYLR7 ag max-min
CCOc1ccccc1NC(=O)c1cc(=O)c(OCC)cn1C is listed with 3.0 | 1.5
O=C(c1cc2ccccc2o1)N(CCN1CCCCC1)CC1CCCN(C2CCCC2)C1 (centres undefined) is listed with 4.9&-4.0 | 4.7&-7.7
Cc1ccc(-c2ccnc(NCc3cc(=O)[nH]cn3)n2)c(C)n1 is listed with 0.6 | -1.4

The list continues.
SMILES | NPYLR7 ag | NPYLR7 ag max-min
O=C(NC1CC1)C1CCCN(C2CCN(C(=O)c3ccc4[nH]ccc4c3)CC2)C1 (centres undefined) | 24.8 | 16.2
O=C(c1cccc(N2CCNC2=O)c1)N1CCCC(CCc2ccc(F)cc2)C1 (centres undefined) | 2.8 | 0.1
O=C(Nc1ccc(Oc2cccc3cccnc23)c(Cl)c1)c1cc(Cl)cc(I)c1O | 17.0 | 12.3
CC(CC(F)(F)F)C(=O)N1CCC(n2cnc3ccc(F)cc32)CC1 (centres undefined) | 3.3 | -0.4
CNc1nc(C(=O)N2CCC(Cc3cccc(C(=O)O)c3)CC2)cs1 | 2.1 | 0.7
Cc1ccc(NC(=O)CSc2nnc(CCc3c(C)[nH]c(=O)n(C)c3=O)o2)cc1F | -6.1 | -10.6
O=C(CSc1nc(Cl)cc(N2CCN(C(c3ccccc3)c3ccccc3)CC2)n1)NCc1ccc2c(c1)OCO2 | 25.0 | 25.9
COC(C)c1ccc(-c2ccc(-c3nnc(C)o3)cc2)cc1 (centres undefined) | 12.8 | 7.9
COc1cccc(-c2csc3c(=O)[nH]c(N4CCCC(C(=O)NC5CCCCC5)C4)nc23)c1 (centres undefined) | -9.6 | -12.7
CCOC(=O)CC1CCCCN1Cc1cc(=O)n2nc(CC)sc2n1 (centres undefined) | 1.1 | 1.2
CC(=O)c1ccc(NC(=O)c2cn(C)c3c(=O)n(-c4ccccc4)c(=O)[nH]c23)cc1 | 2.6 | 1.5
Cc1nnc(C)c2c(C)n(-c3cccc(C(F)(F)F)c3)nc12 | -9.7 | -18.2
O=C(c1csc2nc(-c3ccc(C(F)(F)F)cc3)cn12)N1CCc2[nH]ncc2C1 | 0.8 | -3.6
O=C1NCCN(CC(c2ccccc2)c2ccccc2)C1CC(=O)N1CCCOCC1 (centres undefined) | 5.8 | 4.7
O=C(NCCC12CC3CC(CC(C3)C1)C2)C12CC3CC(CC(C3)C1)C2 | 0.5 | -6.8
Cc1cc(C)c(S(=O)(=O)N(Cc2ccsc2)Cc2ccccn2)c(C)c1 | 17.7 | 20.6
CCN(CC1CCOC1)C(=O)Nc1ccn(CCc2ccncc2)n1 (centres undefined) | 7.7 | 4.5
Cc1cccc(Nc2ccncc2S(=O)(=O)NC(=O)NC(C)C)c1 | 0.2&19.1&-10.0 | -12.2&7.7&-16.3
COc1ccc(Nc2nccc(NCCO)n2)cc1 | -9.6 | -16.5
COCCN=c1scc(-c2cc(OC)ccc2OC)n1N=Cc1c(O)ccc2ccccc12 | 4.7 | 5.5
O=C(Oc1ccc(-c2nnco2)cc1)C1=CC=CN2CCS(=O)(=O)N=C12 | 3.9 | 12.7
COc1ccccc1-c1ccc(N2CCC(C(=O)Nc3cccc(C)n3)CC2)nn1 | -9.6 | -13.6
CN(Cc1ccccc1)S(=O)(=O)c1ccc(-c2nc(C#N)c(NCc3ccc(F)cc3)o2)cc1 | 0.5 | 4.6
CCOC(=O)C1CCCN(CC(=O)N2N=C(c3cc(C)ccc3C)CC2c2ccc(OC)cc2)C1 (centres undefined) | -1.1 | 3.5
O=C(Nc1ccccc1)c1cc2n(n1)CCCN(C(=O)[C@H]1C[C@@H]3C=C[C@H]1C3)C2 | -4.0 | -8.3
N=C1c2ccccc2CN1c1cccc(S(=O)(=O)N2CCCC2)c1 | 4.4 | 4.5
CC(C)CCN(Cc1c(-c2ccccc2F)noc1N1CCOCC1)C(=O)c1ccc(Cl)cc1 | -3.8 | 12.4
Cc1c(-c2cccc(Cl)c2)oc2ccc(Br)cc2c1=O | -1.7 | -8.8
COc1ccc(S(=O)(=O)c2cnc(SCC(=O)Nc3ccc(OC)cc3OC)[nH]c2=O)cc1 | -2.3 | -3.4
CCSCCC(NC1=CC(=O)CC(C)(C)C1)C(=O)O (centres undefined) | 0.2 | -3.1
Cc1ccc(-c2nc(CN(C)Cc3nonc3C)c(C)o2)s1 | -8.8 | -13.5
CCOC(=O)N1CCN(c2ccc(S(=O)(=O)Cc3ccc(Cl)cc3)nn2)CC1 | -0.2 | -1.5
C#CCOCC(O)CN(Cc1ccco1)Cc1cccn1C (centres undefined) | 15.9 | 8.9
O=C(c1ccc(OC2CCN(Cc3ccccn3)CC2)cc1)N1CCc2ccccc2C1 | 8.5 | -1.1
COc1ccc2[nH]c(CNC(C)CC(C)(C)OC)cc2c1 (centres undefined) | -2.8 | 1.2
Cc1ccc(S(=O)(=O)NCCCN2CCOCC2)c(C)c1C | 9.4 | 10.2
Cn1ncc(N=Cc2c(O)ccc3ccccc23)c1C(=O)Nc1ccccc1 | -4.0 | -8.8
CCc1noc(C)c1C(=O)NCc1cnn2ccccc12 | 6.7 | -0.8
NC(=O)CC1CCN(CC(=O)NCC(F)(F)F)CC1 | 9.2 | 4.5
CCc1cc(N2CCCC2)nc(SCc2ccc(C(=O)NCc3ccc4c(c3)OCO4)cc2)n1 | 5.4 | 10.3
CN1CCN(C2=NC(C(=O)Nc3ccccc3)CC(=O)N2)CC1 (centres undefined) | -2.8 | -2.7
Cc1ccc(-n2ncc3c(C4CC4)nn(CC(=O)Nc4cccc(F)c4)c(=O)c32)cc1C | 6.0 | 3.4
Cc1cccc(CNc2nc3cnc(-c4ccc(F)cc4)cc3n2C)c1 | 2.8 | -5.0
CCC(C)N1CCC(=O)N(CC(=O)c2[nH]c(C)c(C(C)=O)c2C)C1=O (centres undefined) | 1.4 | 0.2
Cc1cccc(-n2c(C)nn(CN3CCN(c4ccccc4O)CC3)c2=S)c1 | 2.0 | 1.3
CC(=O)Nc1ccc(S(=O)(=O)Oc2ccc(CN(Cc3ccco3)C(=O)C3CCC3)cc2)cc1 | 7.2 | 14.0
CCCOC(C)C(=O)N1CCc2c(nc[nH]c2=O)C1 (centres undefined) | 0.5 | -0.6
Cc1cc(NC(=O)c2ccc(-c3ccccc3)cc2)n(-c2nc(C)c(C)c(=O)[nH]2)n1 | -3.8 | -3.6
CN1CCN(Cc2nc3c(c(=O)n(C)c(=O)n3C)n2Cc2ccc(Br)cc2)CC1 | 0.5 | -0.4
COCc1cnc2c(c1SCC(=O)Nc1cccc(C)c1)c(=O)n(C)c(=O)n2C | 5.2 | 11.8
COc1cc(NC(=O)Nc2ccc(N3CCN(c4ccccc4OC)CC3)c(C(=O)N3CCCC3)c2)cc(OC)c1 | -5.4 | 2.9
CN(C(=O)Nc1cnn(CC(N)=O)c1)C(Cc1ccccn1)C(C)(C)C (centres undefined) | 4.6&-1.9 | 1.8&-6.3
CC(NS(=O)(=O)c1ccc(Br)cc1)C(=O)N(C)C (centres undefined) | -1.3 | -2.1
CNC(=O)c1[nH]nc2c1C(c1sc3ccccc3c1C)CC(=O)N2 (centres undefined) | -1.9 | -2.2
CC(=O)Nc1cccc(NC(=O)CSc2ccc(-c3ccc(-n4ccnc4)cc3)nn2)c1 | -10.7 | -5.4
CC(=O)N1CCCC(OCc2ccccc2C)C1 (centres undefined) | -8.8 | -0.4
COc1ccc(-c2[nH]nc3c2C(c2cccs2)C(C#N)C(=N)O3)cc1 (centres undefined) | -3.3 | -10.3
COc1ccc(S(=O)(=O)Nc2ccccc2C(=O)NCCc2ccc(F)cc2)c(OC)c1 | 2.2 | 4.5
COc1cc(C(=O)Nn2cnc3c(cnn3-c3ccc(C)cc3)c2=O)cc(OC)c1OC | -1.3 | -4.7
CCn1ccnc1CN(C)C(=O)CCc1nnc(CCC2CCCCC2)o1 | -4.0 | -9.4

5 entries from above, tab-delimited.
Structure	NPYLR7 ag	NPYLR7 ag max-min
CN1CCN(Cc2nc3c(c(=O)n(C)c(=O)n3C)n2Cc2ccc(Br)cc2)CC1	0.5	-0.4
COc1cc(NC(=O)Nc2ccc(N3CCN(c4ccccc4OC)CC3)c(C(=O)N3CCCC3)c2)cc(OC)c1	-5.4	2.9
CC(=O)Nc1ccc(S(=O)(=O)Oc2ccc(CN(Cc3ccco3)C(=O)C3CCC3)cc2)cc1	7.2	14.0
CC(=O)Nc1cccc(NC(=O)CSc2ccc(-c3ccc(-n4ccnc4)cc3)nn2)c1	-10.7	-5.4
CCn1ccnc1CN(C)C(=O)CCc1nnc(CCC2CCCCC2)o1	-4.0	-9.4

Carrying on.
SMILES | NPYLR7 ag | NPYLR7 ag max-min
CN(Cc1ccc2ccccc2c1)C(=O)COc1ccccc1F | 5.6 | 9.1
Cc1cc(=O)c(OCc2ccccc2F)cn1CC(=O)N1CCN(c2ccccc2)CC1 | 1.0 | -0.4
COc1ccccc1N1CCN(c2ccc(NC(=O)c3ccc(C(F)(F)F)cc3)cc2C(=O)NCC2CCCO2)CC1 (centres undefined) | 17.3 | 11.8
C=CCNC(=S)NC(=O)c1c(-c2c(F)cccc2Cl)noc1C | 7.6 | 10.5
Cc1cc(NC(=O)CCn2cnc3ccc(Cl)cc3c2=O)no1 | 2.5 | 2.3
COc1cccc(C(=O)Nc2c3c(nn2-c2cccc(C)c2C)CS(=O)C3)c1OC (centres undefined) | -0.4 | -3.1
CC(=O)Nc1ccc(-c2ccnc3c2CC(C(=O)Nc2ccccc2)O3)cc1 (centres undefined) | -14.9 | -14.6
O=S(=O)(c1ccc(Cl)cc1Cl)N1CCN(CCO)CC1 | -9.2 | -11.5
CCCCC(CC)C(=O)Nc1c(-c2ccccc2C)nc2cc(C)ccn12 (centres undefined) | -3.5 | 2.5
CC(C)COC(=O)NCC12C=CC(O1)C1C(=O)N(Cc3ccccc3)C(=O)C12 (centres undefined) | -19.1 | -18.4
CCOC(=O)C1(Cc2ccccc2)CCN(Cc2cnc(-c3ccc(OC)cc3)nc2)CC1 | 11.1 | 3.0
COc1cccc(C(=O)N2CCN(Cc3ccc4occc4c3)CC2)c1 | 0.8 | 0.7
CC(c1ccc(S(N)(=O)=O)cc1)N(C)CCCc1ccccc1 (centres undefined) | 11.3 | 7.5
O=c1[nH]c2ccc(S(=O)(=O)NCC3COc4ccccc4O3)cc2s1 (centres undefined) | -0.1 | -0.3
CC1CCCCN1c1nc2c(c(=O)n(C)c(=O)n2C)n1CCSc1nc2ccccc2s1 (centres undefined) | 1.0 | 19.0
COc1nccnc1N1CCC(O)(c2ccc(C)cn2)CC1 | -4.3 | -6.7
O=C(CC1CSc2nccc(=O)n21)Nc1ccncc1 (centres undefined) | 0.0 | 2.7

From PubChem

These rows are one share of the data, so the mix of outcomes need not match the whole.
